Screening results deposited in PubChem by Fisher Drug Discovery Resource Center.
NPYLR7 ag: agonists of mosquito NPYLR7 receptor, primary screen, cell-based, Aedes aegypti, calcium fluorescence, mosquito biting behavior; Aedes aegypti neuropeptide Y-like receptor 7 (NPYLR7); HEK293T NPYLR7/Galpha15, GCaMP6s calcium fluorescence; activation, % at 10 µM; hit rate 0.15% among 270,000; AID 1259423, 2018; in the data active means activation above about 40%;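 further: 0% = vehicle and 100% = reference agonist at the receptor; some compounds past the cut are filed as inactive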
NPYLR7 ag max-min: recorded beside NPYLR7 ag, whose call it bears; activation, %; measured here: Max-Min RFU normalised activation; some inactives read as strong as hits;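 span of the calcium signal over five minutes; 0% = vehicle and 100% = native peptide agonist; compound fluorescence can raise it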
Numbers without * were called inactive; & = joins results of further samples. Some of the compounds tested; the hit share may differ from the screen's.

Below each compound: NPYLR7 ag | NPYLR7 ag max-min
O=C1OC(C(=O)NCC2CCCc3ccccc32)Cc2ccccc21 (centres undefined)
  15 | 9
Oc1cccc(-c2cc(C3(CNCc4ccc(F)c(F)c4)CC3)ccn2)c1
  -1 | -3
Cc1nc2ccccc2nc1OCC(=O)NCc1ccco1
  2 | -5
Cc1cc(C(=O)N(Cc2ccco2)c2nc3c(F)cccc3s2)no1
  -3 | -5
CC(NC(=O)CSc1nc(O)cc(=O)[nH]1)c1ccccc1 (centres undefined)
  -3 | -10
COc1cc2nc(CSc3nnnn3C3CC3)[nH]c(=O)c2cc1OC
  2 | 1
O=C(NCc1ccon1)Nc1cc(F)ccc1N1CCCCC1
  -20 | -20
COc1ccc(CON=C(C)c2ccc3c(c2)OCCO3)cc1F
  4 | 2
Cc1ccccc1-n1ncc(C(C)NC(=O)c2ccc(-n3cnnn3)cc2)c1C (centres undefined)
  5 | 1
CC(=O)N1CCC(C(=O)N2CCN(Cc3cc(=O)c(OCc4ccc(-c5ccccc5C#N)cc4)co3)CC2)CC1
  4 | 4

More records.
Below each compound: NPYLR7 ag | NPYLR7 ag max-min
CCN(CC)C1=C(c2c(C(F)(F)F)[nH]n(-c3ccccc3)c2=O)C(=O)N(Cc2ccco2)C1=O
  4 | 15
Cc1cc2cc(CNC(=O)CC(C)C)ccc2n1C
  1 | -1
O=C(COc1ccccc1)Nc1cc(F)ccc1F
  -4 | 12
CC(=O)N1CCN(S(=O)(=O)c2cccc(C(=O)Nc3ccc4c(c3)OCCCO4)c2)CC1
  2 | 0
CCN(CC1CCCN(CCc2cccc(OC)c2)C1)C(=O)CN1CCCCCC1 (centres undefined)
  0 | -1
CC(C)CN1C(=O)N(CCCc2cccnc2)C(=O)C12CCN(Cc1ccccn1)CC2
  10 | 5
COc1ccc(OC)c(-c2cnc(-c3cccc(CNC(=O)c4cc(Cl)nc(OC)c4)c3)[nH]2)c1
  7 | 6
COc1ccc(OC)c(CNC2CCN(C(C)C)C2)c1 (centres undefined)
  1 | -3
Cc1cccc(CN2CCN(c3nc4c(c(=O)[nH]c(=O)n4C)n3Cc3ccccc3C)CC2)c1
  0 | 35
Cc1nc2nc(SC(C)C(=O)N(C(C)C)C(C)C)nn2c(C)c1CC(=O)O (centres undefined)
  -1 | -4

Next section:
Below each compound: NPYLR7 ag | NPYLR7 ag max-min
CCc1ccc(NC(=O)C(CC)Sc2ncc(S(=O)(=O)c3ccc(Cl)cc3)c(=O)[nH]2)cc1 (centres undefined)
  -8 | -12
O=C(NCc1ccco1)c1cc2n(n1)CCN(Cc1cccc(C(F)(F)F)c1)C2=O
  18 | 28
Cc1ccccc1-c1nc2cccc(C)n2c1NCc1ccccc1
  6 | 2
O=C(CSc1nnc(-c2ccccc2)n1-c1ccccc1)N/N=C\c1cccc(Cl)c1Cl
  -6 | 4
COc1cc(C)ccc1S(=O)(=O)NC(=O)C1(C)CCN1C(=O)Cc1cc(F)ccc1F (centres undefined)
  3 | 2
COC(=O)C(C(Nc1cccnc1)C(=O)c1ccccc1)C(F)(F)F (centres undefined)
  -2 | -4
CCOc1cccc(N2CCN(Cc3cccc(C)c3)C(C)C2=O)c1 (centres undefined)
  25 | 20
CCCn1c(-c2ccc3c(c2)OCCO3)nc2c1c(=O)[nH]c(=O)n2Cc1ccccc1
  -1 | 12
CN(C)CCCOc1ccc(-c2nnc3ccc(-c4ccccc4)cn23)cc1
  32 | 16
COc1ccc(CCN2CC(NC3CSCCSC3)CC2=O)cc1 (centres undefined)
  2 | -2

(cont.)
Below each compound: NPYLR7 ag | NPYLR7 ag max-min
CC(c1ccccc1)n1c(=O)c(C(=O)Nc2cccc(F)c2)nn(-c2ccccc2)c1=O (centres undefined)
  13 | 13
FC(F)(F)c1nc(NNC(=S)NCC2CCCO2)c2ccccc2n1 (centres undefined)
  -1 | 2
CCC(C)c1ccccc1OC(=O)c1cccc([N+](=O)[O-])c1 (centres undefined)
  -1 | -3
CCCCCC(=O)N1CCN(C(=O)c2cc(-c3ccc(Cl)cc3)n(-c3ccccc3C)c2C)CC1
  -6 | -1
O=C(NC(c1ccccc1)c1ccc2ccccc2n1)C1CCN(CCCOc2ccc(F)cc2)CC1 (centres undefined)
  18 | 7
Nc1nc(-c2cccc(-n3cccn3)c2)cc(N2CCOCC2)n1
  4 | 4
O=C(c1ccc2c(c1)OCCO2)C1CCN(C(=O)c2cnns2)CC1
  2 | 1
Cc1onc(-c2ccccc2Cl)c1C(=O)N(C)c1ccccc1
  -11 | -17
O=C1C(Nc2ccc(F)cc2)=C(N2CCCCC2)C(=O)c2ccccc21
  1 | 7
CN(C)c1ccc2c3c(ccc(N(C)C)c13)C(=O)OC2
  12&11 | 3&7

Going on with the list:
Below each compound: NPYLR7 ag | NPYLR7 ag max-min
O=C(CCc1cc2c(n1-c1ccc3c(c1)OCO3)-c1ccccc1CC2)NCCc1cccs1
  0 | -4
CN(Cc1cnc(-c2ccco2)nc1)Cc1cccc2ncccc12
  17 | 13
O=C(c1ccc(O)cc1)C1CCN(C(=O)NCCc2cccc(F)c2F)CC1
  9 | 7
COc1ccc(CCN(C)C(=O)CSc2nccc(C)n2)cc1OC
  -15 | -20
COc1cc(=O)n(-c2ccc(F)cc2)nc1C(=O)N(C)C1CCN(C)CC1
  8 | 5
Cc1cc(S(=O)(=O)N(CCC#N)Cc2cccnc2)ccc1Br
  1 | 4
CC(C)c1nccn1-c1ccc(Oc2ccccc2)nc1
  -1 | -4
Cc1ccc(Nc2nc(N3CCOCC3)nc3c2cnn3-c2ccccc2)cc1C
  1 | -1
Nc1nc(Cl)cc(Nc2ccc3c(c2)CCO3)n1
  -6 | -8
CCN1CCN(C(c2ccc(Br)cc2)C2Sc3nc(C)nn3C2=O)CC1 (centres undefined)
  -2 | -4

The listing continues:
Below each compound: NPYLR7 ag | NPYLR7 ag max-min
OCCC1CN(Cc2ccc(O)c(Cl)c2)CCN1Cc1ccc(F)c(F)c1 (centres undefined)
  4 | -5
Cc1cc(C)c(N=Nc2c(-c3ccccc3)[nH]n(-c3ccc([N+](=O)[O-])cc3)c2=O)c(C)c1
  -3 | -7
c1ccc2c(CCNc3ccc(Nc4ccncc4)cc3)c[nH]c2c1
  -1 | -8
O=C(Nc1cccc(-c2nc3ccccc3o2)c1)c1ccc2c(c1)OCCO2
  -8 | -7
COc1ccc(C(=O)c2c(N)c(-c3nc(-c4ccccc4)cs3)c3ccccn23)cc1
  6 | 3
CCC1CCCCC1N(C)C(=O)CN(C)C(=O)c1ccc(Br)s1 (centres undefined)
  5 | 5
CCOC(=O)c1nn(-c2ccc(OCC)cc2)cc1O
  -2 | -5
CC(C)CCNC(=O)c1cc(-c2ccccc2F)n2nc(C(C)(C)C)cc2n1
  4 | 10
Cc1c(F)cc(C(N)=O)cc1NS(=O)(=O)c1c(Cl)cccc1Cl
  -5 | -5
CSCCC(=O)N1CCCC(N2CCN(c3cccc(C(F)(F)F)c3)CC2)C1 (centres undefined)
  15 | 2

Remaining list, next part:
Below each compound: NPYLR7 ag | NPYLR7 ag max-min
O=c1ccnc2sc(NCC3CCCc4ccccc43)nn12 (centres undefined)
  4 | 1
COc1ccc2nc(CCn3cnc(-c4ccccc4)c3-c3nccn3C)[nH]c2c1
  3 | -6
COc1cc(S(=O)(=O)n2c([N+](=O)[O-])cnc2C)ccc1Br
  2 | 3
O=C(O)/C=C/C(O)c1ccc(Cl)cc1 (centres undefined)
  -1 | -10
COc1ccccc1-c1noc(CCC(=O)N2CCCC2C(F)(F)F)n1 (centres undefined)
  5 | 3
CC(NC(=O)c1cc(NC(=O)Nc2cccc(Cl)c2Cl)ccc1N1CCCC1)c1ccccc1 (centres undefined)
  -5 | 3
CC(=O)c1ccc(C(=O)Nc2nc(-c3ccc(F)cc3)cs2)cc1
  -5 | -9
CC(C)Oc1ncccc1CNC(=O)c1ccc(Cn2ccnc2)o1
  18 | 8
COC(=O)c1ccc(N2C(=O)/C(=C/c3ccc(Cl)cc3)C=C2c2ccccc2)cc1
  1 | 2
CCCc1cc(C(=O)N2CCc3c(c(C(=O)N4CCOCC4)nn3CCCc3ccccc3)C2)no1
  16 | 10

Grouped by structure: those above containing two or more sulfur atoms (two)
Below each compound: NPYLR7 ag | NPYLR7 ag max-min
CCc1ccc(NC(=O)C(CC)Sc2ncc(S(=O)(=O)c3ccc(Cl)cc3)c(=O)[nH]2)cc1 (centres undefined)
  -8 | -12
COc1ccc(CCN2CC(NC3CSCCSC3)CC2=O)cc1 (centres undefined)
  2 | -2

Part of the list above, as tab-separated lines:
canonical_smiles	NPYLR7 ag	NPYLR7 ag max-min
COC(=O)c1ccc(N2C(=O)/C(=C/c3ccc(Cl)cc3)C=C2c2ccccc2)cc1	1	2
O=c1ccnc2sc(NCC3CCCc4ccccc43)nn12 (centres undefined)	4	1
CCCc1cc(C(=O)N2CCc3c(c(C(=O)N4CCOCC4)nn3CCCc3ccccc3)C2)no1	16	10
COc1ccc2nc(CCn3cnc(-c4ccccc4)c3-c3nccn3C)[nH]c2c1	3	-6
CC(C)Oc1ncccc1CNC(=O)c1ccc(Cn2ccnc2)o1	18	8

The list continues:
Below each compound: NPYLR7 ag | NPYLR7 ag max-min
C/C=C/C(=O)N1CCC(n2c(=O)oc3ccc(Cl)cc32)CC1
  3 | -1
CC(=O)N1CCC[C@H]1C(=O)N(Cc1ccco1)Cc1ccco1
  4 | 2
Cc1ccc(NC(=O)C(=O)N2CCC3(CC2)OCCN3S(=O)(=O)c2cccs2)cc1Cl
  5 | 1
COc1ccc(CN(Cc2ccccc2F)CC(O)COc2ccccc2)cc1 (centres undefined)
  19 | 9
CCOc1ccc2nc(SCC(=O)n3c4c(c5ccccc53)CCCC4)sc2c1
  -8 | -14
CN(C)c1nc2c(c(N(C)C)n1)CCN(C(=O)c1cccc3c1OCC3)C2
  4 | 4
O=C(O)C1CN(C(=O)CC2CCN(Cc3ccccc3)CC2)CCN1 (centres undefined)
  6 | 1
CCOC(=O)c1sc2nc(CN(CC(O)COCc3ccco3)C3CCCCC3)[nH]c(=O)c2c1C (centres undefined)
  -7 | -3
C=CCSc1nc2nc3c(cn2n1)C(=O)CCC3
  1 | 22
O=C(CSc1nc2c(c(=O)[nH]1)CN(Cc1ccccc1)CC2)Nc1ccc(Cl)cc1
  -14 | -13

Following part
Below each compound: NPYLR7 ag | NPYLR7 ag max-min
CC(C)SC(NC(=O)OCc1ccccc1)C(=O)NCCc1ccc(F)cc1 (centres undefined)
  -8 | -14
CC(C)(C)CN(CCC#N)C(=O)c1c[nH]c2ncccc12
  -4 | -5
C#CCCCCCCCCCCCC(O)CC(O)CO (centres undefined)
  -6 | -17
O=C1OC(c2cncc(Br)c2)=N/C1=C\c1coc2ccccc2c1=O
  4 | 14
COc1cccc(-c2ccc(=O)n(Cc3cccc(F)c3)n2)c1
  10 | 3
CSc1nnc(SC(C)C(=O)NCC(C)c2ccccc2)s1 (centres undefined)
  6 | 0
FC(F)(F)c1cc(-c2ccc(Cl)cc2)nc(NCc2cccnc2)n1
  -2 | -3
Cc1cccc(C)c1OCc1nc2ccccc2c(=O)n1NC(=O)COc1ccccc1
  2 | -1
COCc1cc(C)nc2sc3c(c12)NC(c1cn[nH]c1-c1ccsc1)NC3=O (centres undefined)
  3 | 42
Cc1c(NCC(C)(C)C)cccc1C(=O)N1CCC2(C1)OCCO2
  5 | 6

Single records, as listed above. Order of screens: NPYLR7 ag | NPYLR7 ag max-min
Cc1cc(C(=O)N(Cc2ccco2)c2nc3c(F)cccc3s2)no1 is listed with -3 | -5
O=C(COc1ccccc1)Nc1cc(F)ccc1F is listed with -4 | 12
COc1ccc(OC)c(-c2cnc(-c3cccc(CNC(=O)c4cc(Cl)nc(OC)c4)c3)[nH]2)c1 is listed with 7 | 6

(continued)
Below each compound: NPYLR7 ag | NPYLR7 ag max-min
COCC(=O)N1CCCN(Cc2ccc3c(C)cc(=O)oc3c2)CC1
  -6 | -11
CCN(CC)C(=O)CSCC(=O)NNC(=O)C12CC3CC(CC(C3)C1)C2
  0 | 34
O=C(CN1CCCCCC1)Nc1ccc(C(F)(F)F)cc1
  3 | 0
CCc1ccc(-c2nccn2CCc2nc(C)c3c(n2)CCC3)o1
  2 | 0
Cc1cccc(-c2cccc(NC(=O)C3CCCN(C(=O)c4cnsn4)C3)c2)c1 (centres undefined)
  1 | -3
COCCOc1cc([N+](=O)[O-])c(C(=O)NC(C)c2ccc(CC(C)C)cc2)cc1OC (centres undefined)
  10 | 11
N#Cc1nc(COc2ccc(Br)cc2)oc1NCCCn1ccnc1
  6 | 4
CCC1CCc2sc(-c3nn(CN4CCOCC4)c(=S)n3C)cc2C1 (centres undefined)
  5 | 2
CC(=O)NCC(=O)N1CCN(Cc2ccc(-c3noc(-c4cccnc4)n3)cc2)CC1
  6 | 7
O=C(c1ccccc1F)N1CCC(NCc2cccc(O)c2)CC1
  7 | 1

(cont.)
Below each compound: NPYLR7 ag | NPYLR7 ag max-min
COc1ccccc1C1=NN(C(=O)CN(C)c2ccccc2)C(c2ccccc2)C1 (centres undefined)
  14 | 14
COc1ccc(CC(=O)N2CCN(C(=O)CN3CCc4sccc4C3c3cccc(F)c3)CC2)cc1 (centres undefined)
  -7 | -11
O=C(Nc1ccc(Cl)c(Cl)c1)Oc1ccc2c3c1CCCN3CCC2
  5 | 5
CCN(CC)C(=O)C1CCCN(Cc2ccc3c(c2)CN(Cc2ccc4nsnc4c2)CCO3)C1 (centres undefined)
  22 | 9
Cc1ccc(C)c(C2=NN(C(=O)CN3CCC4(CC3)OCCO4)C(c3ccc4c(c3)OCO4)C2)c1 (centres undefined)
  0 | 11
Cc1cccc(N2CCN(C(=O)c3snc(-c4cccc(F)c4)c3N)CC2)c1
  -10 | -10
